# Screening results as filed in PubChem.
# Mtb H37Rv = Mycobacterium tuberculosis H37Rv growth inhibition, cell based, confirmatory dose response (AID 1949); M. tuberculosis H37Rv growth inhibition; actives 1.6% (n = 100,000); inhibition, % at 10 µg/mL; hits with a dose series show IC50 in µg/mL; most inactive calls were filed without a number and no value below 0 was filed;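 active = confirmed in a dose series; inconclusive = about 50% or more but not retested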;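 note: bacteria grown 7 days with compound before Alamar blue readout; 0% = untreated bacteria and 100% = reference antibiotic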
# An asterisk follows results filed as active; i = inactive; ? = inconclusive.
# Preview:
SMILES,Mtb H37Rv
COc1ccc(Cc2nnc(SCC(=O)Nc3ccc(Br)cc3F)n2C)cc1,i
CCc1cccc(OCC(=O)Nc2ccc(C(=O)O)cc2NC(=O)COc2cccc(CC)c2)c1,i
Cc1onc(-c2ccccc2Cl)c1C(=O)Nc1nc2ccc(Cl)cc2s1,i
CCOc1ccc2nc(/N=C(/N)NC(=O)c3ccccc3NC)nc(C)c2c1,4.9%
CCC(Oc1ccccc1)C(=O)NC1CCC(NC(=O)C(CC)Oc2ccccc2)CC1 (stereo not drawn),i

# The whole of this part (from the top)
SMILES,Mtb H37Rv
COc1ccc(Cc2nnc(SCC(=O)Nc3ccc(Br)cc3F)n2C)cc1,i
CCc1cccc(OCC(=O)Nc2ccc(C(=O)O)cc2NC(=O)COc2cccc(CC)c2)c1,i
Cc1onc(-c2ccccc2Cl)c1C(=O)Nc1nc2ccc(Cl)cc2s1,i
CCOc1ccc2nc(/N=C(/N)NC(=O)c3ccccc3NC)nc(C)c2c1,4.9%
CCC(Oc1ccccc1)C(=O)NC1CCC(NC(=O)C(CC)Oc2ccccc2)CC1 (stereo not drawn),i
COc1ccc(Nc2nc(N)nc(-c3cc4ccccc4o3)n2)cc1,i
COc1cc(NS(=O)(=O)c2ccc(NC(=O)COc3ccc(C)cc3C)cc2)nc(OC)n1,i
CCCOc1ccc(Nc2cc(C)nc3ccc(Cl)cc23)cc1,0.74µg/mL*
O=S(=O)(Cc1ccc(Cl)cc1)Nc1ccc(Cl)cn1,i
Cc1ccc(C(=O)NC(=S)Nc2cccc(C(=O)O)c2)cc1C,i
CC1=C(C(N)=O)C(c2cccs2)n2nc(SCc3ccccc3Cl)nc2N1 (stereo not drawn),i
O=S1(=O)N=C(Oc2ccccc2Cl)c2ccccc21,i
COC(=O)c1ccc(COc2ccc(C#N)cc2OC)cc1,i
COc1ccc(S(=O)(=O)Nc2ccccc2-c2ccccc2)cc1OC,i
CCC(C)(C)NS(=O)(=O)c1ccc(Br)cc1,i
Cc1nc2sc3c(c2c(=O)o1)CCCCC3,i
CCCN(Cc1ccccc1)C(=O)Nc1ccc2nc(C)sc2c1,7.8%
Cc1cc(NC(=S)NC(=O)c2ccc(OC(C)C)cc2)c(C)cc1I,i
COc1ccc(C(=O)NCC2(c3ccc(OC)cc3)CCOCC2)cc1,i
O=C(Nc1ccc(N2CCN(Cc3ccccc3F)CC2)cc1)c1cc2ccccc2o1,i
COc1ccc2c(c1)C(C)=CC(C)(C)N2C(=O)CSc1nnc(-c2ccc(C)cc2)o1,i
CC(NC(=O)c1cc(Br)ccc1Cl)c1ccncc1 (stereo not drawn),3.5%
COC(=O)C1C(=O)OC(C)(C)C2CCC(C)CC12 (stereo not drawn),i
Cc1ccccc1-n1c(C)nc2ccc(I)cc2c1=O,i
O=C1c2cccc3cccc(c23)C(=O)N1CCc1n[nH]c(=S)n1-c1ccccc1,i
CCOC(=O)CCC(=O)NNC(=O)COc1ccc(-c2ccccc2)cc1,i
Cc1ccc(-c2noc(COc3cc(C)c(Br)c(C)c3)n2)cc1,i
CCN(CC)C(=O)CN(Cc1ccccc1)S(=O)(=O)c1ccc(F)cc1,i
CCCSC1=C(C#N)C(c2ccco2)C(C(=O)Nc2ccccc2)=C(C)N1 (stereo not drawn),i
Cc1ccc(-c2nn(C)c(=O)c3ccccc23)cc1CNC(=O)c1ccc(Cl)cc1,i
COc1ccc(CCNc2nc(-c3ccncc3)cs2)cc1OC,i
O=C(CNS(=O)(=O)c1ccc(Cl)cc1)Nc1cccc([N+](=O)[O-])c1,i
CC(C)(C)c1cc(C(=O)N=Nc2c(O)[nH]c3ccccc23)n[nH]1,27.2%
Cc1cc(Br)ccc1OCC(=O)Nc1nc2ccccc2s1,i
O=C(CN(Cc1c(F)cccc1Cl)S(=O)(=O)c1ccc(Cl)cc1)NCc1cccnc1,i
O=C(Nc1ccc(S(=O)(=O)Nc2nccs2)cc1)c1ccc2c(c1)OCCO2,1.5%
O=Cc1ccc(SCc2ccco2)o1,?
C=CCn1c(SCC(=O)Nc2ccc(Cl)cc2Cl)nnc1-c1cc(Br)ccc1O,i
Cc1ccc(N2CCN(S(=O)(=O)c3cc(C)c(Br)cc3C)CC2)cc1Cl,2.0%
CCOc1cccc2cc(C(=O)NCc3cccnc3)c(=O)oc12,i
CCN1CCN(c2ncnc3c2cnn3-c2ccc(Cl)cc2)CC1,5.8%
CCOc1ccccc1NC(=O)C(=O)NCc1ccccc1,i
Cn1c(SCC(=O)OCC(=O)c2ccccc2)nnc1-c1cccs1,i
c1ccc(OCCn2c(-c3ccco3)nc3ccccc32)cc1,7.5%
COc1ccc(S(=O)(=O)N(CC(=O)N2CCCCCC2)c2ccccc2OC)cc1,i
CC1=C(C(=O)N2CCOCC2)C(c2cccc(F)c2)NC(=O)N1 (stereo not drawn),i
CC(=O)c1ccc(NC(=S)NC(NC(=O)N(C)C)C(Cl)(Cl)Cl)cc1 (stereo not drawn),i
CC1(C(=O)Nc2cccc(Br)c2)Cc2ccccc2C(=O)O1 (stereo not drawn),i
CCOc1ccc(C2CC(=O)n3nc(C45CC6CC(CC(C6)C4)C5)nc3S2)cc1OC (stereo not drawn),i
O=C(O)CCCC(=O)Nc1ccc(OCc2nc3ccccc3s2)cc1,i
# Next part.
SMILES,Mtb H37Rv
Clc1ccc(SCCSc2ncccn2)cc1,6.7%
Cc1ccc(C2CC(=O)c3cnc(NC4CCCC4)nc3C2)cc1 (stereo not drawn),i
O=C1CCCc2c1cc(C(=O)Nc1ccc(Br)cn1)c(=O)n2-c1ccccc1,i
COc1ccccc1-n1c(Cc2cccs2)n[nH]c1=S,0.8%
CCOC(=O)C1=C(c2ccccc2)Nc2ncnn2C1c1cccnc1 (stereo not drawn),i
CS(=O)(=O)N(CC(=O)NC1CCCCCC1)C1CCCCC1,i
N#CC1=C(SCC(=O)Nc2nccs2)NC(=O)CC1c1ccccc1F (stereo not drawn),i
CC1CC(C)CN(Cc2nc(N)nc(Nc3ccc4ccccc4c3)n2)C1 (stereo not drawn),31.9%
CC1CCc2cc(F)ccc2N1C(=O)CN1C(=O)C2CCCCC2C1=O (stereo not drawn),i
CCc1ccc(NC(=O)CSc2nnc(-c3ccccc3Cl)o2)cc1,i
Fc1ccc(OCCN2CCCC2)cc1,i
CC(=O)c1ccc(N=C2N=C(N)c3ccccc32)cc1,i
O=C(NC(=S)Nc1ccc(N2CCCCC2)cc1)c1ccc(-c2ccccc2F)o1,i
N#C/C(=C\c1ccccc1OCC(N)=O)c1nc2ccccc2[nH]1,i
CCN(CC)c1ccc(NS(=O)(=O)c2ccc(OC)cc2)cc1,3.2%
CCOc1ccc(C(=O)Nc2nnc(C3CCCCC3)s2)cc1,i
O=C(NC(=S)N(Cc1ccccc1)Cc1ccccc1)C1CCCCC1,i
COc1ccc(Nc2nnc(-c3ccc(C(=O)NCCO)cc3)c3ccccc23)cc1,i
O=C(Nc1cnn(Cc2ccc(F)cc2)c1)c1ccc(Br)o1,22.7%
COc1ccc(-c2nnc(SCC(=O)NC(C)c3ccccc3)o2)cc1OC (stereo not drawn),i
CCCCNCCCCCCOc1ccccc1Br,i
COc1ccc(CCNCc2ccccc2OC)cc1,i
O=C(c1ccccc1C(=O)N1CCN(c2ccccc2)CC1)N1CCN(c2ccccc2)CC1,i
Cc1ccccc1C(=O)N1CCN(c2ccc(NC(=O)COc3ccc(Cl)cc3)cc2)CC1,i
Cc1cc(C)n(C(=O)c2cccc(S(=O)(=O)N3CCCCCC3)c2)n1,i
CC(C)(C)C1CCc2c(sc(NC(=O)CN3CCCC3)c2C#N)C1 (stereo not drawn),?
COc1ccc(Cl)cc1NC(=O)C12CCC(C)(c3nc4ccccc4nc31)C2(C)C (stereo not drawn),0.1%
C=CCn1c(-c2ccc([N+](=O)[O-])cc2)nc(=S)c2c1CCCC2,i
CC1CN(C(=O)c2ccccc2Cl)CCN1C(=O)c1ccccc1Cl (stereo not drawn),i
Cc1ccccc1N(CC(=O)Nc1ccc(S(=O)(=O)N2CCOCC2)cc1)S(C)(=O)=O,i
O=C(Nc1cc(F)ccc1F)c1sc2ccccc2c1Cl,i
COc1ccc(S(=O)(=O)N(C)CC(=O)N2CCN(c3ccccc3F)CC2)cc1C,i
CCOc1cccc2cc(-c3nc4ccc(C)cc4[nH]3)c(=O)oc12,<0.1µg/mL*
COc1ccc(-c2c(C(F)(F)F)oc3c(C)c(OC)ccc3c2=O)cc1,i
CC(=O)Oc1ccc(S(=O)(=O)c2ccc(OC(C)=O)c(OC(C)=O)c2)cc1OC(C)=O,i
O=C(Nc1ccc(Cl)cc1)c1cc(S(=O)(=O)Nc2ccccn2)ccc1Cl,i
CC1=C(C(=O)Nc2ccccc2)C(c2ccccc2)C(C#N)=C(SCC(=O)NCc2ccccc2)N1 (stereo not drawn),2.4%
COc1ccc(C(=O)Nc2ccccc2C#N)cc1OC,i
O=C(Nc1ccc(Cl)cc1C(=O)Nc1ccncc1)c1ccco1,0.2%
Oc1ccc(NC(=S)NCCc2ccccc2)cc1,i

# Not a retest: entries from further up.
SMILES,Mtb H37Rv
COc1ccc(-c2c(C(F)(F)F)oc3c(C)c(OC)ccc3c2=O)cc1,i
CC(=O)Oc1ccc(S(=O)(=O)c2ccc(OC(C)=O)c(OC(C)=O)c2)cc1OC(C)=O,i
O=C(Nc1ccc(Cl)cc1)c1cc(S(=O)(=O)Nc2ccccn2)ccc1Cl,i
CC1=C(C(=O)Nc2ccccc2)C(c2ccccc2)C(C#N)=C(SCC(=O)NCc2ccccc2)N1 (stereo not drawn),2.4%
COc1ccc(C(=O)Nc2ccccc2C#N)cc1OC,i

# The results go on.
SMILES,Mtb H37Rv
O=C(c1ccc(Cl)cc1Cl)N1CCC(C(=O)N2CCCC2)CC1,i
O=C(CCc1ccccc1)Nc1ccc(Oc2ccc3c(c2)C(=O)NC3=O)cc1,i
O=c1c2c(nc3nc(-c4cccnc4)[nH]n13)CCC2,i
COc1cccc(CNC(=S)Nc2cc(OC)c(Cl)cc2OC)c1,i
Cc1nn(-c2ccccc2)c2sc(C(=O)Nc3ccc(F)cc3)cc12,i
Cc1ccc(OCC(=O)NCCCc2ccccc2)c(C)c1,15.7%
Cc1occc1C(=O)NCc1ccncc1,i
O=C(Nn1cnnc1)c1cc(Br)ccc1Cl,i
O=C(Nc1ccc(Cl)cc1F)c1cccc2ccccc12,i
COc1cc(-c2n[nH]c(=O)o2)cc(OC)c1OC,i
Cc1ccc(S(=O)(=O)N(CC(=O)NCc2ccccc2Cl)Cc2ccc(F)cc2)cc1,6.3%
COC(=O)c1ccc(CN(c2cccc(Cl)c2Cl)S(C)(=O)=O)cc1,i
CCCCC(=O)Nc1ccc(NC(=O)c2ccc(COc3ccccc3)cc2)cc1OC,i
O=C1NC(=O)N(C2CCCCC2)C(=O)/C1=C\c1ccc(N2CCCC2)cc1,i
C1=CC2CC1CC2CN1CCN(C2CCC(c3ccccc3)CC2)CC1 (stereo not drawn),i
O=C(Cc1ccc(Cl)cc1)OCc1ccc(S(=O)(=O)c2ccccc2)cc1,i
Cc1ccnc(NC(=O)COc2ccc([N+](=O)[O-])cc2)c1,0.43µg/mL*
COc1ccc(NC(=O)c2cc(Br)ccc2Cl)c(OC)c1,?
CCC(=O)Nc1nnc(C2CCCC2)s1,i
COc1ccc(NC(=O)CN(C2CCCCC2)S(C)(=O)=O)cc1OC,i
Fc1ccc(OCCOc2cccc3cccnc23)cc1,4.7%
Cc1ccc(C)c(NC(=O)CC(Cc2ccc(Cl)cc2)C(=O)O)c1 (stereo not drawn),2.0%
Cn1nnnc1Sc1ccc([N+](=O)[O-])c2ncccc12,i
Cc1ccc(Oc2c(C(F)(F)F)oc3c(CN4CCOCC4)c(O)ccc3c2=O)cc1,i
CCCN1C(=O)c2ccc(C(=O)Nc3cc(Cl)ccc3O)cc2C1=O,i
CCc1cc(=O)oc2cc(OCC(=O)Nc3ccc(Cl)cc3)c(Cl)cc12,i
Cc1cc(C)nc(NC2=NCC(=O)N2c2ccccc2Br)n1,i
O=C(NC(=S)N1CCOCC1)c1ccccc1,i
Cc1ccc2nc(-c3ccc(NC(=S)NC(=O)Cc4ccccc4)cc3O)oc2c1,i
CCOc1ccc(S(=O)(=O)n2cc(C)nc2-c2ccccc2)cc1,i
COc1cc(Cl)c(C)cc1NC(=O)C1CCCCC1,i
Cc1nc(SCC(=O)n2c3c(c4ccccc42)CCCC3)n[nH]1,i
CC(=O)Nc1nnc(-c2cccc(Br)c2)s1,i
Cc1ccccc1OCCSc1nnnn1-c1ccccc1,5.9%
CCOc1ccccc1NC(=S)Nc1ccc(Cl)cc1Cl,i
CC(C)(C)NS(=O)(=O)c1ccc(NC(=S)NC(=O)C(c2ccccc2)c2ccccc2)cc1,i
CCOC(=O)C1=C(C)NC(=S)NC1c1ccco1 (stereo not drawn),i
C#CCOc1c(Br)cc(CO)cc1OCC,i
CCCCC(=O)Nc1ccc(NC(=O)CCCC)c(OC)c1,7.1%
COc1ccc(OC)c(NC(=O)CN(c2cc(C)cc(C)c2)S(=O)(=O)c2ccc(OC)c(OC)c2)c1,i

# Sorted by SMILES length (lowest first): part of the list above
SMILES,Mtb H37Rv
C#CCOc1c(Br)cc(CO)cc1OCC,i
CC(=O)Nc1nnc(-c2cccc(Br)c2)s1,i
COc1cc(Cl)c(C)cc1NC(=O)C1CCCCC1,i
CCOc1ccccc1NC(=S)Nc1ccc(Cl)cc1Cl,i
CCCCC(=O)Nc1ccc(NC(=O)CCCC)c(OC)c1,7.1%
Cc1nc(SCC(=O)n2c3c(c4ccccc42)CCCC3)n[nH]1,i
COc1ccc(OC)c(NC(=O)CN(c2cc(C)cc(C)c2)S(=O)(=O)c2ccc(OC)c(OC)c2)c1,i

# Next results:
SMILES,Mtb H37Rv
CCCOc1ccc(N2CC(C(=O)Nc3ccc(Br)cc3)CC2=O)cc1 (stereo not drawn),i
Cc1nnc(NC(=O)C2c3ccccc3Oc3ccccc32)s1,0.2%
Cc1nn(C)c(C)c1S(=O)(=O)NCc1ccccc1Br,i
COc1cc(NS(=O)(=O)c2ccc(NC(=O)c3ccc(S(=O)(=O)N4CCOCC4)cc3)cc2)ncn1,i
C=CCS(=O)(=O)c1ccc2ccccc2c1,0.9%
CC(C)c1ccc(OCC(=O)Nc2ccc(Nc3ccccc3)cc2)cc1,i
O=C(CCC1CCCCC1)NCc1ccc2c(c1)OCO2,i
COc1ccccc1-c1coc2cc(OCC(=O)OCc3ccccc3)ccc2c1=O,0.35µg/mL*

# Only part of the results is shown (hit frequency here may not be typical).
